Source: PubChem BioAssay
Mtb growth = Mycobacterium tuberculosis H37Rv growth inhibition, putative kinase inhibitor library, confirmatory dose response (AID 2842); M. tuberculosis H37Rv growth inhibition; higher % means a stronger effect; some inactives read as strong as hits; inhibition, % at 10 µg/mL, or IC90 in µg/mL where a hit was titrated; 24,000 tested, 5.2% active;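 active = confirmed in a dose series; about a fifth of its hits are not listed in these tables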;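 also: bacteria incubated one week before Alamar blue readout; 0% = bacteria only wells and 100% = bacteria with high antibiotic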
* = called active by the depositor.

smiles	Mtb growth
Cc1cc2cc(CCNC(=O)/C=C\c3ccccc3)c(=O)[nH]c2cc1C	3.1%
O=C(c1ccc2c(c1)OCO2)N1CCN=C1SCc1cccc([N+](=O)[O-])c1	0.0%
CCOC(=O)c1c(NC(=O)CC)sc2c1CC(C)(C)NC2(C)C	5.3%
Cc1ccc(CSc2nc3c(c(=O)[nH]c(=O)n3C)n2Cc2ccccc2Cl)cc1	-2.8%
Cc1ccc2c(n1)[nH]n1c(=O)cc(C)nc21	-0.7%
CCOc1ccc(C(=O)Nc2nnc(-c3cccc(C)c3)s2)cc1	-6.2%
O=C(C1=C(O)C(=O)N(c2nc3ccc(F)cc3s2)C1c1cccc(Cl)c1)c1cccs1 (stereo not given)	83.3%
NC(=O)c1nc(-c2ccc([N+](=O)[O-])cc2)nc2c1[nH]c(=O)n2-c1ccc(F)cc1	-7.5%
O=C1CCc2cc(NS(=O)(=O)c3ccc(F)cc3)cc3c2N1CCC3	13.3%
O=C(CSc1ccc2nnc(-c3ccc(F)cc3)n2n1)Nc1ccc(F)cc1F	-5.8%
COc1cccc(-n2c(SCC(=O)Nc3cc(C)on3)nc3c([nH]c4ccccc43)c2=O)c1	56.1%
Cc1ccccc1Nc1nc(Nc2ccccc2C)nc(N2CCOCC2)n1	-8.5%
O=C(COc1ccc2ccccc2c1)Nc1nnc(-c2ccccc2Cl)s1	6.2%
NC(=O)c1c(NC(=O)c2cccc(N3C(=O)CCC3=O)c2)sc2c1CCCCC2	2.6%
Cc1ccc2cc(CCNC(=O)c3cccc([N+](=O)[O-])c3)c(=O)[nH]c2c1	-1.5%
CC(=O)Nc1ccc(NC(=O)CSc2nnc3ccc(-c4ccc5c(c4)OCO5)nn23)cc1	-5.0%
O=C(O)c1ccccc1NC1=C(Cl)C(=O)N(c2ccccc2Cl)C1=O	-1.9%
Cc1cccc(CC(=O)Nc2c3c(nn2-c2ccc(F)cc2)CS(=O)C3)c1 (stereo not given)	-0.8%
Cc1ccc(C)c2[nH]c(=O)c(CCNC(=S)NCCc3ccccc3)cc12	55.7%
O=C(Oc1coc(CSc2ncccn2)cc1=O)c1cccs1	8.5%
O=C(Cc1cc(=O)[nH]c(=O)[nH]1)NC1CCCC1	-4.0%
O=C(OCCN1C(=O)c2ccccc2C1=O)c1c(-c2ccccc2)c(-c2ccccc2)n[nH]c1=O	-16.7%
C=CCOC(=O)COc1ccc2cc(-c3ccc(Cl)cc3)c(=O)oc2c1	2.53µg/mL*
COc1ccc2cc(CCNC(=O)c3ccc(F)c(F)c3)c(=O)[nH]c2c1	-0.5%
O=C(CSc1nnc2ccc(-c3ccco3)nn12)Nc1cccc(Cl)c1	-1.7%
O=C1c2ccccc2C(=O)c2cc(S(=O)(=O)Nc3ccncc3)ccc21	-13.2%
Cc1cc(NC(=O)c2ccccc2)nc2c1c(=O)oc1ccccc12	10.5%
O=C(N/N=C/c1cccs1)c1cc(C2CC2)[nH]n1	3.0%
O=C(CSc1nc2c(c(=O)[nH]1)CN(Cc1ccccc1)CC2)Nc1cccc(F)c1	11.5%
COc1cccc(C2NC(=O)NC(C)=C2C(=O)Nc2cccc(Cl)c2)c1 (stereo not given)	-1.4%
COc1ccc(C(=O)Nc2ccc(S(=O)(=O)Nc3onc(C)c3C)cc2)cc1OC	-14.3%
COc1cc(/C=C(/C#N)c2nc(-c3ccc([N+](=O)[O-])cc3)cs2)ccc1O	7.1%
COc1ccc(S(=O)(=O)NC2CC(=O)N(c3ccc4c(c3)OCCO4)C2)cc1 (stereo not given)	15.5%
O=c1[nH]cc(S(=O)(=O)Nc2ccc(F)cc2F)c(=O)[nH]1	-0.5%
COc1cccc(-c2ccc(SCC(=O)Nc3ccc(NC(C)=O)cc3)nn2)c1	-11.0%
COC(=O)CSC(C)C(=O)Nc1nnc(-c2ccc(Br)cc2)s1 (stereo not given)	-2.8%
Cc1cc(C)cc(NC(=O)CSc2nc3c(c(=O)[nH]2)CN(C(C)C)CC3)c1	-10.6%
Cc1ccc(C(=O)Nc2nnc(-c3ccc(C)cc3C)o2)cc1	33.5µg/mL*
CS(=O)(=O)c1ccc(-c2nnc(NC(=O)c3ccccc3[N+](=O)[O-])o2)cc1	-8.7%
CC(C)c1nc2ccccc2n1C(=O)c1ccccc1C(=O)O	5.4%
CC(=O)N1CCCc2ccc(NC(=O)c3ccc(Cl)c([N+](=O)[O-])c3)cc21	21.5%
Cc1ccc(C2C(C#N)=C(SCC(=O)Nc3cccc(Cl)c3)NC3=C2C(=O)CCC3)o1 (stereo not given)	12.1µg/mL*
CCc1cccc(OCC(O)Cn2c(N3CCN(CC)CC3)nc3c2c(=O)[nH]c(=O)n3C)c1 (stereo not given)	-8.5%
CC1(C)COc2ccc(NC(=O)COc3ccc(F)cc3)cc2NC1=O	3.1%
Cc1ccc(-c2nc(C(N)=O)c3[nH]c(=O)n(-c4ccc(C)c(C)c4)c3n2)cc1	-18.0%
Cc1ccccc1N=c1oc2cc(O)ccc2cc1C(N)=O	1.4%
Cc1cn2c3c(=O)[nH]c(=O)n(C)c3nc2n1Cc1ccccc1	-1.3%
Nc1c(C(=O)c2ccccc2)sc2nc(-c3ccccc3)cc(C(F)(F)F)c12	13.4%
Nc1nc(SCC(=O)NCc2ccco2)[nH]c(=O)c1NC(=O)c1ccc(F)cc1	-9.4%
Cc1ccc(N2C(=O)C(Cl)=C(Nc3cccc(O)c3)C2=O)cc1Cl	75.3%
CCc1ccc(OCC(O)Cn2c(NCCCOC)nc3c2c(=O)[nH]c(=O)n3C)cc1 (stereo not given)	-8.2%
CCOc1ccccc1NC(=O)c1oc2ccccc2c1NC(=O)COc1cccc(C)c1	-5.1%
CCC(Sc1ccc2nnc(-c3cccnc3)n2n1)C(=O)O (stereo not given)	-12.8%
COc1cccc(-c2nnc(NC(=O)Cc3ccc(S(C)(=O)=O)cc3)o2)c1	-16.9%
CCC(C(=O)NCCc1cc2ccc(OC)cc2[nH]c1=O)c1ccccc1 (stereo not given)	-0.3%
O=C1NC(=O)c2c(NC(=O)c3coc4ccccc4c3=O)cccc21	-8.0%
Cc1cc2cc(CCNC(=O)c3ccc(C(C)(C)C)cc3)c(=O)[nH]c2cc1C	4.6%
CC(=O)N1CCc2c(sc(NC(=O)c3cc([N+](=O)[O-])ccc3Cl)c2-c2nc3ccccc3s2)C1	2.9%
COCCNC(=S)NCCc1cc2ccc(C)cc2[nH]c1=O	1.6%
CCc1ccc(NC(=O)CSc2nc(N)c(NC(=O)c3ccc(OC)c(OC)c3)c(=O)[nH]2)cc1	1.5%

Retrieved by structure from above, five records:
smiles	Mtb growth
Cc1cccc(CC(=O)Nc2c3c(nn2-c2ccc(F)cc2)CS(=O)C3)c1 (stereo not given)	-0.8%
COC(=O)CSC(C)C(=O)Nc1nnc(-c2ccc(Br)cc2)s1 (stereo not given)	-2.8%
CCc1ccc(OCC(O)Cn2c(NCCCOC)nc3c2c(=O)[nH]c(=O)n3C)cc1 (stereo not given)	-8.2%
O=C(C1=C(O)C(=O)N(c2nc3ccc(F)cc3s2)C1c1cccc(Cl)c1)c1cccs1 (stereo not given)	83.3%
CC(=O)Nc1ccc(NC(=O)CSc2nnc3ccc(-c4ccc5c(c4)OCO5)nn23)cc1	-5.0%

(further entries)
smiles	Mtb growth
O=S(=O)(c1ccccc1)N1CCn2cccc2C1c1ccc(F)cc1 (stereo not given)	-17.2%
Clc1cccc(N2CCN(c3ncnc4c3cnn4-c3ccccc3)CC2)c1	5.6%
CCS(=O)(=O)c1ccc(C(=O)Nc2nc3ccc(NC(C)=O)cc3s2)cc1	10.7%
Cc1cccc2sc(NNC(=O)c3cc4ccccc4oc3=O)nc12	2.94µg/mL*
Nc1ncnc(N2CCCCCC2)c1[N+](=O)[O-]	8.3%
CC(=O)c1cccc(NC(=O)NC2CC(=O)N(c3ccc(C)c(C)c3)C2)c1 (stereo not given)	6.2%
CCn1c(SCC(=O)Nc2ccc(C)cc2C)nc2c(c1=O)SC(C)C2 (stereo not given)	6.8%
CC(=O)c1ccc(C(=O)Nc2nc(-c3cccc4ccccc34)cs2)cc1	12.9%
Cc1cc2cc(CCNC(=O)CC(C)(C)C)c(=O)[nH]c2cc1C	5.6%
Cc1nnc(SCCn2c(N3CCOCC3)nc3c2c(=O)[nH]c(=O)n3C)s1	9.4%
CCS(=O)(=O)c1ccc(C(=O)Nc2nc3c(C)c(C)ccc3s2)cc1	3.6%
O=C(Nc1nc(-c2nc3ccccc3s2)cs1)c1cccc(Oc2ccccc2)c1	7.3%
Cc1ccc(C(=O)Nc2c(C(=O)Nc3ccc4c(c3)OCO4)oc3ccccc23)cc1[N+](=O)[O-]	-1.0%
COc1cc(/C=N/NC(=O)c2cc(-c3ccco3)[nH]n2)ccc1O	9.9%
C=CCSc1nc2c(c(=O)[nH]1)C(c1ccccc1)C1=C(CCCC1=O)N2 (stereo not given)	2.0%
COC(=O)c1ccc(CSc2ccc3nnc(-c4ccccc4)n3n2)o1	3.9%
NNC(=O)C1CCCN(S(=O)(=O)c2ccc3ccccc3c2)C1 (stereo not given)	2.9%
Cc1cc(OC(=O)c2ccc(Cl)cc2Cl)c([N+](=O)[O-])c(=O)[nH]1	11.5%
COc1ccc(CC2S/C(=N/c3ccccn3)NC2=O)cc1 (stereo not given)	7.3%
COc1ccc2nc(Nc3ccc(F)cc3)sc2c1	9.3%
CCc1ccc(NS(=O)(=O)c2cc3c4c(c2)CCN4C(=O)CC3)cc1	9.7%
COC(=O)Cn1c(=NC(=O)c2cccc([N+](=O)[O-])c2)sc2cc(S(N)(=O)=O)ccc21	2.3%
Cc1ccc(C)c(-c2nnc(NC(=O)c3cc4cc([N+](=O)[O-])ccc4s3)o2)c1	18.9%
CCS(=O)(=O)c1ccc(C(=O)Nc2nnc(-c3ccc(Br)cc3)o2)cc1	24.6µg/mL*
COC(=O)CSc1nnc(-c2c[nH]c3ccccc23)n1-c1cccc(OC)c1	3.2%
CCOC(=O)c1nn(-c2ccc(Cl)cc2)c(=O)c2c(NC(=O)c3ccc(C(F)(F)F)cc3)scc12	-7.0%
Cc1cccc(-n2ccnc2SCC(=O)Nc2nnc(C)s2)c1	4.8%
O=C(Nc1c(C(=O)Nc2ccc([N+](=O)[O-])cc2)oc2ccccc12)c1ccccc1Br	17.4%
CC(=O)c1sc(NC(=O)CN2C(=O)c3ccccc3C2=O)nc1-c1ccccc1	-8.6%
CN1C(=O)c2cccc(NC(=O)c3ccc(Cl)cc3)c2C1=O	2.6%
CN(C)S(=O)(=O)c1ccc(C(=O)Nc2sc3c(c2-c2nc4ccccc4s2)CCCC3)cc1	-5.5%
O=C(CC1CCCC1)Nc1c(C(=O)Nc2ccc3c(c2)OCCO3)oc2ccccc12	-12.9%
Cc1ccc(C(=O)NCCc2cc3c(C)ccc(C)c3[nH]c2=O)cc1[N+](=O)[O-]	-5.2%
COc1ccc(/C=C/C(=O)Nc2nc(-c3ccc(F)cc3)cs2)cc1OC	10.0%
C=CCSC1=C(C#N)C(c2cccc(OC)c2)CC(=O)N1 (stereo not given)	2.9%
O=C(Nc1nc(-c2ccccc2)c(C(=O)c2ccccc2)s1)c1cccc(Cl)c1	-10.6%
NC(=O)C1CCN(C(=O)Cc2cc(=O)[nH]c(=O)[nH]2)CC1	-8.1%
N#Cc1ccc(CSc2ncccc2C(=O)O)cc1	-2.9%
CC(Sc1nc2ccccc2s1)C(=O)Nc1nnc(-c2ccccc2Cl)s1 (stereo not given)	24.6%
O=S(=O)(NCC1COC2(CCCCC2)O1)c1ccc(F)cc1 (stereo not given)	6.0%
Cc1ccc(-n2nnc3c(=O)n(Cc4ccc(C(F)(F)F)cc4)cnc32)cc1C	3.1%
Cn1c(=O)[nH]c(=O)c2c1nc(N1CCCCCC1)n2CCSc1ncccn1	5.6%
CCCCC(=O)Nc1nc2ccc(C(=O)OC)cc2s1	24.9%
Cc1cc(O)c(C(c2ccncc2)N2CCN(c3ccc(F)cc3)CC2)c(=O)n1Cc1ccco1 (stereo not given)	-2.2%
Nc1ncnc(N2CCc3ccccc3C2)c1[N+](=O)[O-]	13.6%
Cc1ccc(C(C)C)c(OCC(=O)N=Nc2c(O)[nH]c3ccc(Br)cc23)c1	1.8%
CCOc1ccc(NC2CC(=O)N(C(C)c3ccccc3)C2=O)cc1 (stereo not given)	83.8%
CCS(=O)(=O)c1cccc(C(=O)Nc2sc3c(c2C#N)CCN(C(C)=O)C3)c1	-18.5%
NS(=O)(=O)c1ccc(C(=O)Nc2cccc(-c3cn4c(n3)SCC4)c2)cc1	-0.7%
COC(=O)N1CCc2c(sc(NC(=O)c3ccc(F)cc3)c2C(N)=O)C1	16.4%
CCCCN1C(=O)c2cccc3c(NC(=O)c4ccc([N+](=O)[O-])s4)ccc1c23	22.7µg/mL*
O=C(c1cccs1)c1cnc2ncccn12	-12.6%
COc1ccc2cc(CCNC(=O)C3CC3)c(=O)[nH]c2c1	10.8%
Cc1ccc(-c2csc(NC(=O)c3ccc(S(=O)(=O)N4CCCC(C)C4)cc3)n2)cc1 (stereo not given)	-6.7%
Cc1ccc(CSc2nc3c(c(=O)[nH]c(=O)n3C)n2CCCc2ccccc2)cc1	-4.0%
O=C(NCCS(=O)(=O)N1CCC2(CC1)OCCO2)c1ccc2c(c1)OCO2	-1.3%
CC(C)N1CCc2c(sc(NC(=O)c3nc4ccccc4s3)c2C(N)=O)C1	12.9µg/mL*
COC(=O)c1ccc(/C=C2\Oc3c(ccc(O)c3CN3CCCCC3C)C2=O)cc1 (stereo not given)	-3.7%
COc1ccc(/C=C(/C#N)C(=O)Nc2ccc([N+](=O)[O-])cc2)cc1	9.6%
CC(C)N(C(=O)CSc1nnc(NC(=O)NC(C)(C)C)s1)C(C)C	0.2%

An excerpt. The share of hits here may be higher or lower than overall.
